# Screening data as filed in PubChem BioAssay.
# Beta cell apopt = blocks beta cell apoptosis; INS-1E cytokine-induced death, ATP luminescence, 48 h; percent of positive-control rescue, neutral wells zero; protection from apoptosis, % (test concentration not listed); hit rate 0.8% among 300,000;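 active = all replicates at 75% or more, or half of them and the mean; inconclusive = half reach 75% but not the mean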;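 note: 0% = cytokine-treated negative control wells and 100% = positive control rescue; higher means more ATP so stronger rescue from cytokine killing; wells of about 40 µL received 100 nL stock; the first replicate is given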
# RanGTP-Impb inh = disruptors of Ran-importin-beta complex formation – biochemical, FRET, CFP-Ran, YFP-importin-beta, homogeneous, primary screen; inhibition, % (no concentration beside the values); hit rate 1.1% among 300,000; cell-free CFP-Ran/YFP-importin-beta FRET ratio;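 active = most replicates above 15%; inconclusive = exactly half above 15%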;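 note: 0% = DMSO wells and 100% = Ran loaded with GDP instead of GTP; wells of about 40 µL received 100 nL stock; the first replicate is given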
# AF4-AF9 inh = blocks AF4 peptide binding to human AF9; P42568; hit rate 0.47% among 350,000; inhibition, % at 10 µM; AlphaScreen, biotin-AF4 peptide binding to FLAG-AF9; AID 651704;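 active = every replicate reaching a set inhibition limit, whatever the replicate mean, cut at about 25% in these data; inconclusive = mean inhibition reaches that limit but some replicates miss it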;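 note: 0% = plate neutral control median and 100% = total signal loss; the record names both 10 and 1 µM as test concentration; the first replicate is given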
# Target sequence (P42568 whole entry, looked up): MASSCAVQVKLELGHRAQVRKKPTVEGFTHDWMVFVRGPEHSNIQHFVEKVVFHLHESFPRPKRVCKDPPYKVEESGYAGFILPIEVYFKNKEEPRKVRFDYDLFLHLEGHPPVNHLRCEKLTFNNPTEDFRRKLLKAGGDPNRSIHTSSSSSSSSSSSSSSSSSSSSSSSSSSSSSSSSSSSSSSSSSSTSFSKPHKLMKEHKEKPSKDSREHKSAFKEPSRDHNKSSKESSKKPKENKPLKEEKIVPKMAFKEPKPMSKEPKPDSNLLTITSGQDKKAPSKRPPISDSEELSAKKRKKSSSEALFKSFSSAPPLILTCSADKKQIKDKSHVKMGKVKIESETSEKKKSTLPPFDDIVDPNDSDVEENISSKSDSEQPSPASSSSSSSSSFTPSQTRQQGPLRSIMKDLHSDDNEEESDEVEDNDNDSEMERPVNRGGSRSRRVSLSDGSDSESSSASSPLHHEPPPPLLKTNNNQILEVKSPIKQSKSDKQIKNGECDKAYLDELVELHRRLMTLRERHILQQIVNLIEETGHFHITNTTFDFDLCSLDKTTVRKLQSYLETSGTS
# Ecoli rRNA inh = inhibits bacterial ribosomal RNA function over humanized ribosomes | GFP signal change (wild-type ribosome), % (test concentration not listed) | AID 720706 | E. coli WT GFP vs humanized-ribosome RFP mutants, fluorescence, 24 h; stronger effect = lower value; DMSO median 0, no signal -100 | hit rate 1.6% among 350,000;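 active = significant combined selectivity score with lowered wild-type GFP, culture density cut under 30%, mutant RFP and density less affected; inactive = any of these conditions unmet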; note: one replicate is shown; some compounds called inactive have numbers as strong as hits
# Calb FLC = affects C. albicans growth with fluconazole. hit rate 0.57% among 300,000. growth inhibition, % (no concentration beside the values). C. albicans CaCi-2 (fluconazole-resistant clinical isolate) + fluconazole, Alamar Blue growth, 48 h. AID 1979;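 active = most replicates above 75%; inconclusive = exactly half above 75%; inactive = most below 75%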;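 note: all wells also contain fluconazole at 8 µg/ml as a sub-toxic cotreatment; 0% = median of DMSO wells and 100% = median of geldanamycin control wells; wells of about 8 µL received 7.5 nL stock; the first replicate is given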
# T cruzi inh = blocks replication of Trypanosoma cruzi. T. cruzi beta-gal in NIH3T3, luminescence, 90 h. inhibition, % (concentration not given with the values). hit rate 1.4% among 300,000. AID 1885;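 active = mean inhibition across valid replicates above about 55%, limit read from the data; inconclusive = mean below that limit but half or more replicates reach it; inactive = mean below it, under half of replicates reach it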;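 note: signal also drops with host cell toxicity which is not excluded here; 0% = plate median of DMSO wells and 100% = zero luminescence signal; higher percent means less beta-gal luminescence so fewer parasites; stock transfer was 50 nL into about 50 µL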
# ALR H2O2 inh = human ALR oxidase inhibition via reduced H2O2; P55789; hit rate 3.8% among 290,000; AID 485317; inhibition, % (concentration not given with the values); purified ALR, DTT oxidation, H2O2 HRP-luminol luminescence;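 active = mean and each replicate at 75% or more; inconclusive = only one of the two met; inactive = neither met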;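 note: stock transfer was 7.5 nL into about 7.5 µL; 0% = neutral wells and 100% = wells with inactivated enzyme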
# Target sequence (P55789 whole entry, looked up): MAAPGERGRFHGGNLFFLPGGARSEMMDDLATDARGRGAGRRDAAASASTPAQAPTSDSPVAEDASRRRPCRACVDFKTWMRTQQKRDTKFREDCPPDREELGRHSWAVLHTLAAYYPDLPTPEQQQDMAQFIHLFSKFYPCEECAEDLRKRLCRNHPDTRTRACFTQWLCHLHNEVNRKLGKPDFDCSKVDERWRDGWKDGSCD
# FGF22 binding = binders of recombinant human FGF22 by thermal shift | Q9HCT0 | SYPRO orange fluorescence; percent of sucrose octasulfate shift, DMSO zero | calls only at 9.99 µM | hit rate 1.5% among 340,000 | AID 651658;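 active = melting point raised past a set limit in the mean and every replicate; inconclusive = no clear call; three in four hits are not shown here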
# Target sequence (Q9HCT0 whole entry, looked up): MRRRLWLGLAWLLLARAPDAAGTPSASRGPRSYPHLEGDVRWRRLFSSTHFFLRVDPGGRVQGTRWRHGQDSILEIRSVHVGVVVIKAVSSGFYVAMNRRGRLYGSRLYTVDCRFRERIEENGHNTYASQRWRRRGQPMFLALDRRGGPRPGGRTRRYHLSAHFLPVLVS
# Ecoli rRNA inh OD600 = also measured in Ecoli rRNA inh; calls as there; OD600 change, %; measured here: OD600 growth;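 optical density of the mix in the first replicate; 0 = DMSO median and -100 = no signal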
# Ecoli rRNA inh RFP = recorded beside Ecoli rRNA inh, whose call it bears; RFP signal change, %; measured here: RFP humanized mutant strains;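 first replicate; 0 = DMSO median and -100 = no signal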
# Active calls of the source: *; i = inactive; ? = inconclusive; . = no result given. Only part of the results is shown, so the mix of outcomes need not match the whole.
SMILES,Beta cell apopt,RanGTP-Impb inh,AF4-AF9 inh,Ecoli rRNA inh,Ecoli rRNA inh OD600,Ecoli rRNA inh RFP,Calb FLC,T cruzi inh,ALR H2O2 inh,FGF22 binding
Cc1ccc(-n2c(SCC(=O)O)nc3sc4c(c3c2=O)C(C)CCC4)cc1 (centres undefined),-2,-2.0,-0.7,-10,-23,3.4,-6,9,98*,i
COc1ccc(N2C(=O)c3ccccc3S2(=O)=O)cc1,-2,-0.5,-8.4,3,5,2.3,1,1,-8,i
COc1ccccc1N(C)S(=O)(=O)c1ccc(C(=O)NCC2CCCCC2)cc1,11,.,-1.0,-21,-44,0.0,.,.,.,i
COc1ccc2c(c1)C(=O)N(c1ccccc1C)C(=O)C2(C)C,-3,-1.4,-1.1,.,.,.,4,-15,-9,i
COc1ccc(OCC(=O)OCCNC(=O)c2cccnc2)cc1,-3,-3.0,3.6,18,24,-8.2,7,1,-13,i
COc1ccc(CC(NC(C)=O)C(=O)NC2CCN(S(=O)(=O)c3ccc(NC(C)=O)cc3)CC2)cc1OC (centres undefined),2,0.4,-1.2,15,14,1.9,-8,-1,-8,i
C=CCOC(=O)C1=C(C)NC(=O)NC1c1ccc(Cl)cc1 (centres undefined),0,-4.5,2.7,3,4,4.0,-6,5,2,i
O=C(CSc1ncnc2ccccc12)c1ccc2c(c1)OCCO2,-14,5.9,1.7,4,-16,16,17,-2,99*,i
NS(=O)(=O)c1ccc(CNS(=O)(=O)c2cccc3nonc23)cc1,-4,-1.6,1.3,-4,8,0.3,9,-15,-20,i
CCOC(=O)c1c(C)[nH]c(C)c1C(=O)CSc1ncccn1,0,-1.9,9.6,11,1,-5.2,13,-9,10,i
COC(=O)c1sc(=S)n(-c2ccc(Cl)cc2)c1C,-4,?,.,.,.,.,-33,11,-2,.
O=C(NNC(=O)c1ccc2c(c1)OCO2)NC1CCCCC1,3,1.5,.,.,.,.,0,12,14,.
COc1cc(-c2ccc3c(=O)c4ccccc4sc3c2)cc(OC)c1OC,10,.,-2.9,6,12,-3.2,.,.,1,i
Oc1c(Br)cc(Br)cc1CNc1cccc2cccnc12,-15,6.3,1.1,-22*,-7.2*,-1.8*,81*,10,-104,i
CC(C)CN(C(=O)c1ccc(N2CCCC2=O)cc1)C1CCS(=O)(=O)C1 (centres undefined),-7,-6.4,-1.2,10,11,-1.2,1,4,.,i
CCCC1(C(=O)OCC)NC(c2ccc(N(C)C)cc2)C2C(=O)N(c3ccc4c(c3)OCCO4)C(=O)C21 (centres undefined),1,-2.7,.,.,.,.,-14,-15,8,.
CN(CC(=O)Nc1ccc(F)cc1)C(=O)COC(=O)CNC(=O)c1ccc(Cl)cc1Cl,1,-0.1,-1.7,1,-13,-1.6,8,-10,-4,i
O=[N+]([O-])c1cc(S(=O)(=O)Nc2ccccc2)ccc1NCc1cccnc1,-4,5.3,.,.,.,.,12,9,-29,.
C=C1CCN([C@@H](C)C(=O)NCc2ccc(Cl)cc2)S(=O)(=O)c2ccccc21,-7,?,2.9,-53,-74,-26,0,-14,1,i
CCC(C)NC(=O)CCCCCn1c(=O)[nH]c2cc(OC)c(OC)cc2c1=O (centres undefined),0,-2.8,.,7,20,-2.3,0,-3,-4,.
CC1(NC(=O)Nc2cc([N+](=O)[O-])ccc2O)CCS(=O)(=O)C1 (centres undefined),4,.,1.2,18,7,-0.4,.,.,11,i
CCCNS(=O)(=O)c1ccc(Oc2ncc(C(F)(F)F)cc2Cl)cc1,.,-0.3,.,.,.,.,-16,18,-6,.
COC(=O)c1oc2ccc(Br)cc2c1NC(=O)c1ccccc1,9,-0.8,.,.,.,.,-4,-8,.,.
COc1ccccc1C1=Nn2c(COc3ccccc3)nnc2SC1,-1,-1.4,.,.,.,.,-21,12,-6,.
O=C(NCc1cccnc1)c1cccc(NS(=O)(=O)c2ccc(Br)cc2)c1,20,2.3,-2.4,-2,-6,2.2,2,-1,.,i

# Further compounds.
SMILES,Beta cell apopt,RanGTP-Impb inh,AF4-AF9 inh,Ecoli rRNA inh,Ecoli rRNA inh OD600,Ecoli rRNA inh RFP,Calb FLC,T cruzi inh,ALR H2O2 inh,FGF22 binding
COCCOC1CCN(C(=O)c2ccc(OC)c(OC3CCN(C(C)C)CC3)c2)CC1,-3,-0.7,0.8,16,2,2.6,-5,-7,-26,i
COc1ccc(OC)c(C=Nc2ccccc2-c2nc3ccccc3[nH]2)c1,1,2.1,-4.7,11,6,9.7,4,8,-15,i
O=C(Nc1ccc(Nc2ccccc2)cc1)C(Cl)(Cl)Cl,3,3.5,.,.,.,.,-16,26,95*,.
Cc1cccc(NS(=O)(=O)c2ccc(C(=O)N3CC(C)OC(C)C3)cc2)c1C (centres undefined),-2,4.9,-9.7,0,-4,-2.9,13,3,-3,i
O=C(CCCn1c(=O)oc2ccccc21)Nc1cccnc1,-5,?,.,.,.,.,3,16,-9,.
CCOC(=O)N1CCC2(CC1)CC(=O)c1c(ccc3oc(C(=O)O)c(C)c13)O2,-2,3.3,.,.,.,.,-4,5,-4,.
COc1cccc(C2=CC(=O)C[C@H](c3ccc(Cl)cc3)C2)c1,0,.,4.7,-1,-19,-5.3,.,.,1,i
CS(=O)(=O)Oc1ccc2c(c1)O/C(=C\c1cccc([N+](=O)[O-])c1)C2=O,-5,-1.3,-0.1,7,13,0.5,7,6,-4,i
CC[C@H]1C/C=C\Cc2ccccc2[C@@H](C(=O)C[C@@H](O)CC(C)=O)OC1=O,-16,.,-2.3,-2,-10,-1.6,.,.,.,i
[O-][n+]1onc2c1CCc1nnccc1-2,-1,-6.1,.,.,.,.,16,-18,-20,.
O=C(O)CCn1c(=O)n(CCC(=O)O)c(=O)n(CCC(=O)O)c1=O,.,1.0,-4.4,17,14,-2.1,-5,-5,-4,i
C=CC[C@]12C=C(OC)C(=O)C=C1O[C@@H](c1ccc3c(c1)OCO3)[C@H]2C,-2,1.8,-3.1,-9,2,-5.3,7,-2,-15,i
CCOC(=O)C1CCCN(c2ccc(NC(=O)c3snc4c(=O)[nH]c(C)nc34)cc2)C1 (centres undefined),23,2.7,-1.4,9,-1,0.7,-3,5,-5,i
O=[N+]([O-])c1ccc(Oc2ccc(F)cc2Br)c2ccncc12,-16,1.4,.,.,.,.,-8,4,3,.
Cc1ncoc1C(=O)N1CCCC(CCC(=O)NCc2ccccc2F)C1 (centres undefined),1,1.0,-5.8,15,7,1.0,3,8,-2,i
COc1ccc(N(CC(=O)NCCSCc2cccc(Cl)c2)S(C)(=O)=O)cc1Cl,0,-1.9,3.1,-27,-47,12,-1,1,-8,i
CC(C)NC(=O)N1CCC(c2nc3ccccc3s2)CC1,0,0.7,-1.7,0,-7,0.2,-9,6,8,i
COc1cc(NC(=O)COC(=O)/C=C/c2c(C)nn(-c3ccc(F)cc3)c2Cl)cc(OC)c1,4,11,-2.2,4,4,1.1,-17,60*,-23,i
O=C(NCC1CCCCC1)c1cc(S(=O)(=O)N2CCCCC2)ccc1Cl,3,.,-0.5,18,20,1.8,.,.,0,i
Cc1c(CC(=O)NCCCC(=O)O)c(=O)oc2cc3occ(-c4ccccc4)c3cc12,-1,-3.3,-0.4,-2,-32,-7.0,0,-8,.,i
CC1CCN(C(=O)CN2c3cccc4cccc(c34)S2(=O)=O)CC1,2,.,0.3,.,.,.,.,.,-8,i
C=CCn1cccc(C(=O)Nc2ccc(OC)c(OC)c2)c1=O,2,-4.6,0.8,8,4,1.8,4,-18,-32,i
O=C(NCCC1CCCCN1S(=O)(=O)c1cccs1)C(=O)Nc1ccccc1F (centres undefined),.,-3.3,-0.4,1,6,-1.5,1,14,-3,i
N#CCC(=O)N/N=C1\CCCCC1C1CCCCC1 (centres undefined),-2,3.1,.,.,.,.,-5,1,6,.
COC(=O)c1ccccc1NC(=O)CSc1ccccn1,-2,-2.6,.,.,.,.,-1,-4,2,.

# Following part
SMILES,Beta cell apopt,RanGTP-Impb inh,AF4-AF9 inh,Ecoli rRNA inh,Ecoli rRNA inh OD600,Ecoli rRNA inh RFP,Calb FLC,T cruzi inh,ALR H2O2 inh,FGF22 binding
COc1ccc(C(CC(=O)NCc2ccco2)c2ccc(F)cc2)cc1 (centres undefined),1,-2.2,.,.,.,.,-17,3,-5,.
CCc1ccc(-c2cc(C)no2)cc1S(=O)(=O)N1CCOc2ccc(C)cc21,12,8.1,-0.1,1,0,-5.8,-1,13,-6,i
COc1ccc(NC(=O)CSc2nnc3ccc(-c4ccccn4)nn23)cc1,4,?,-9.6,-14,0,-1.5,-8,4,-1,i
O=C1CC(=O)N(Cc2ccco2)C(=O)N1,-4,1.3,.,.,.,.,-3,-5,.,.
CCOC(=O)C1C(c2ccc(O)c(OC)c2)NC(=S)NC1(O)C(F)(F)F (centres undefined),-5,-0.6,1.6,7,4,-1.2,-10,-13,22,i
CC(C)c1ccc(-c2nnn(CCC#N)n2)cc1,0,0.2,-1.3,0,6,-2.1,3,6,-5,i
C/C(=N\NS(=O)(=O)c1c(C)cc(C)cc1C)c1ccncc1,3,0.7,-2.4,8,4,-1.9,-3,-5,-3,i
O=C(CSc1ccccc1)N[C@@H](Cc1ccccc1)C(=O)O,-1,-0.9,-1.4,5,9,-7.4,-1,-11,-9,i
CCN(C(=O)CSc1nc(N)cc(N)n1)C1CCS(=O)(=O)C1 (centres undefined),-1,-0.1,-2.0,10,3,-3.3,11,-2,-7,i
COc1ccc(Cl)cc1S(=O)(=O)N1CCN(c2ccc(F)cc2)CC1,-6,1.2,.,.,.,.,6,34,9,.
O=C1OC(C(=O)Nc2nccs2)Cc2ccccc21 (centres undefined),-4,2.2,.,.,.,.,-3,-21,.,.
O=C(c1cccnc1)N1CCN(S(=O)(=O)c2ccc(S(=O)(=O)N3CCCC3)cc2)CC1,.,-3.2,3.9,11,3,-2.0,0,1,-3,i
Cc1ccccc1NC(=O)C(=O)c1cn(C)c2ccccc12,-2,-1.1,-0.1,22,15,-0.1,11,-11,-9,i
Cc1cc(C(=O)NC(C)c2ccccc2)c2cc(F)ccc2n1 (centres undefined),2,3.3,-0.6,2,5,3.8,1,0,-14,i
COc1ccc(N2CCN(C(=O)c3ccc(OCC4CCCO4)cc3)CC2)cc1 (centres undefined),-8,-3.2,.,.,.,.,-2,6,44,.
Cc1ccc(NC(=O)CCC(=O)NNC(=O)c2cccs2)cc1C,.,?,4.8,0,7,2.0,2,-20,.,i
O=C(Nc1ccc(O)cc1)c1ccc(NC(=O)C2CCCO2)cc1 (centres undefined),-4,3.7,-0.2,12,25,4.0,25,-6,99*,i
O=C(NCc1cccs1)C1CC(=O)N(c2ccc(F)cc2)C1 (centres undefined),-12,-0.8,.,.,.,.,-16,2,-11,.
CC(C)NC(=S)N/N=C/c1ccccc1[N+](=O)[O-],-1,2.8,-1.7,12,10,-3.4,-29,-1,4,i
CCN(CC)c1ccc(CNc2nc3ccccc3n2C(C)C)cc1,-8,12,0.2,7,-3,-4.6,4,-7,.,i
